Assay outcomes as filed in PubChem.
Bst PK mod – Pyruvate Kinase; partly purified Bacillus stearothermophilus pyruvate kinase, luminescence ATP production; ribose 5-phosphate activator present at AC10; Potency, µM; actives 1.2% (n = 51,000); AID 361, 2006; in the data active means potency below about 11 µM; inconclusive means mostly about 12 µM to 25 µM; inactive means weaker than that;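 the screen sought inhibitors and activators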;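 further: potency means the concentration at half of the fitted maximal effect; scaled between full activation by ribose 5 phosphate and full inhibition by luteolin; about four in five hits inhibit and the cells do not say which; series up to 57 µM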
YjeE inh – qHTS Assay for Inhibitors of YjeE. tRNA threonylcarbamoyladenosine biosynthesis protein TsaE (Escherichia coli (strain …. purified YjeE, fluorescence polarisation of a bound ADP probe. Potency, µM. actives 0.05% (n = 71,000); active = well fitted falling curve; inconclusive = weaker or top-dose-only fall, or a rising curve; inactive = flat or poorly fitted curve;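 further: top concentration of the series not given in the record; excess ADP was the control for the full effect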
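Fluorescence polarization of a BODIPY Texas Red–ADP probe (2 uM) bound to purified YjeE (10 uM) was read after 15 min room-temperature incubation with compounds. Loss of polarization marks inhibitors; ADP serves as titrated control.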
An asterisk follows results filed as active; i = inactive; ? = inconclusive; nt = not tested or not shown.

Order of values – Bst PK mod	YjeE inh
- CCOc1ccc(-n2c(=O)c3c4c(sc3n(CC(=O)NCc3ccco3)c2=O)CCC4)cc1
    >57	i
- CCc1ccc(S(=O)(=O)NCc2csc(-c3cccnc3)n2)s1
    nt	i
- Cc1ccc(CNC(=O)Nc2ccccc2)cc1
    nt	i
- CC(=O)N[C@H](c1ccccc1)[C@@]1(C)C[C@@H]1[C@@H](C)C(=O)Nc1ccc2ccccc2c1
    nt	i
- CCOc1ccc2c(C)c(C(=O)O)oc2c1OCC
    >57	i
- CC(C)(C)C(=O)Nc1ccccc1N1CCN(C(=O)c2ccc(Cl)cc2)CC1
    nt	i
- O=C(O)/C=C\C=C/c1ccc2c(c1)OCO2
    nt	i
- COC(=O)c1cc2ccsc2n1Cc1cc(=O)n2ccccc2n1
    >57	i
- COC(=O)c1cc(NC(=O)CSc2nnc(CN3CCOCC3)n2C)ccc1Cl
    >57	i
- CCn1c(-c2ccccc2O)n[nH]c1=S
    nt	i
- Fc1ccc2nc(Nc3nc4c(s3)CCCC4)sc2c1
    ?	i
- COc1ccc(S(=O)(=O)NC(CC(=O)NCCc2ccc(OC)c(OC)c2)c2ccco2)cc1 (stereo not drawn)
    >57	i
- CCOC(=O)c1ccc(NC(=O)CSc2nc(SC)ns2)cc1
    >57	i
- COc1ccc(NC(=O)C2CCCN2C(=O)NCc2ccccc2)c(OC)c1 (stereo not drawn)
    >57	i
- COc1ccc(-c2nnc(SC3CCOC3=O)n2C2CCCCC2)cc1OC (stereo not drawn)
    >57	i
- CCC(C)N1CC23C=CC(O2)C(C(=O)OC)C3C1=O (stereo not drawn)
    nt	i
- CCCCn1c(NCCC)nc2c1c(=O)[nH]c(=O)n2C
    >57	i
- CC(C)COc1ccc(C(=O)CCN2CCCCC2)cc1
    >57	i
- COc1ccc(NC(=O)CSc2nnc(COc3ccccc3)n2Cc2ccco2)cc1OC
    >57	i
- O=C1CC(c2ccccc2)n2ncnc2N1 (stereo not drawn)
    >57	i

Order of values – Bst PK mod	YjeE inh
- COC(C)(C)[C@]12CC(O)(C(C)C)ON1[C@H]1CCCCC1N2O (stereo partly drawn)
    >57	i
- O=C(CSc1nnc(-c2ccc(OC(F)F)cc2)o1)NC(=O)NCc1ccco1
    >57	i
- CCn1cc(S(=O)(=O)CC(=O)Nc2ccc3c(c2)OCCO3)c2ccccc21
    >57	i
- Cc1cc(NS(=O)(=O)c2ccc(NC(=O)COc3ccc(Cl)cc3)cc2)no1
    >57	i
- O=C(CN(C1CCCCC1)S(=O)(=O)c1ccc(Cl)cc1)NCCCO
    nt	i
- Cc1c(NC2=C(Cl)C(=O)N(c3ccccc3)C2=O)c(=O)n(-c2ccccc2)n1C
    nt	i
- O=C(c1ccc(Br)o1)N(Cc1ccccc1)c1ccccn1
    nt	i
- O=C(O)c1cccc(COc2ccccc2Cl)c1
    6.7*	i
- CCOC(=O)c1oc2ccccc2c1NC(=O)c1cccc(OC)c1
    >57	i
- c1ccc(CCc2nn3c(-c4ccncc4)nnc3s2)cc1
    >57	i
- CCN1CCN(C(=O)c2ccc3c(=O)n(Cc4ccccc4OC)c(=S)[nH]c3c2)CC1
    >57	i
- CC(C(=O)OCC(=O)Nc1ccc2c(c1)OCO2)N1C(=O)c2ccccc2C1=O (stereo not drawn)
    >57	i
- CC(C)=C1C(=O)C(c2ccccc2)=C2CN3C(=O)N(CCc4ccccc4)C(=O)[C@]3(Cc3ccc(C(F)(F)F)cc3)[C@H]21
    nt	i
- CCOC(=O)c1[nH]c2c(c1C)C(=O)CC(c1ccco1)C2 (stereo not drawn)
    nt	i
- COc1ccc(-n2c(Cc3cccn3C)nnc2SCC(=O)Nc2cc(Cl)ccc2OC)cc1
    nt	i
- C=CCn1c(-c2cccs2)nc2ccccc21
    >57	i
- CCn1c(SCC(=O)c2[nH]c(C)c(C(C)=O)c2C)nnc1-c1ccncc1
    >57	i
- COc1ccccc1C(=O)NCCNC(=O)c1ccco1
    >57	i
- Cn1c(=O)c(C(=O)CN2CCOCC2)c(N)n(Cc2ccccc2)c1=O
    >57	i
- CCCn1nnnc1NC(=O)CSc1ccc(Cl)cc1
    i	i

A draw from above in order of heavy-atom count, highest first.
Order of values – Bst PK mod	YjeE inh
- O=C(CN(C1CCCCC1)S(=O)(=O)c1ccc(Cl)cc1)NCCCO
    nt	i
- CCCn1nnnc1NC(=O)CSc1ccc(Cl)cc1
    i	i
- O=C(O)c1cccc(COc2ccccc2Cl)c1
    6.7*	i

Next section
Order of values – Bst PK mod	YjeE inh
- C[C@@H]1Nc2ccc(Cl)cc2S(=O)(=O)N1
    nt	i
- COC(=O)CCCc1nc2ccccc2s1
    >57	i
- Fc1ccc(-c2ccc(-c3nn4c(-c5ccco5)nnc4s3)o2)cc1
    >11	i
- CCOC(=O)c1c(NC(C)=O)sc2c(O)c(CN3CCN(CC)CC3)ccc12
    nt	i
- Cc1ccc(NC(=O)CCNS(=O)(=O)c2cccc3nonc23)cc1
    >57	i
- COc1ccc(C(C)=O)cc1CSc1nc2ccccc2o1
    >57	i
- CNc1nc(C)c(C#N)cc1C(C)=O
    >26	nt
- CN(Cc1nc(-c2ccccn2)no1)S(=O)(=O)c1ccc(Cl)cc1
    >57	i
- CC(=O)N(c1cccc(C)c1)C1SC(=O)N(c2ccccc2)C1=O (stereo not drawn)
    >57	i
- CNc1ncncc1-c1ccccc1C(F)(F)F
    nt	i
- COc1ccccc1[N+](=O)[O-]
    nt	i
- Nn1c(SCc2ccccc2)nnc1-c1ccco1
    nt	i
- CC(C)N(C(=O)Cn1c(SCC(=O)N2CCN(c3ccccc3)CC2)nc2ccccc21)C(C)C
    >57	i
- N#C/C(=C(/O)COC(=O)CCc1ccc(S(=O)(=O)N2CCOCC2)cc1)c1nc2ccccc2[nH]1
    >57	i
- CN(Cc1ccccc1)Cc1nc2c([nH]1)c(=O)[nH]c(=O)n2C
    >57	i
- COc1cc2c(cc1OC)-c1cc(NC3CC3)nc(=O)n1CC2
    >57	i
- COc1ccc(C)c(S(=O)(=O)Nc2ccc(OCC(=O)O)cc2)c1
    nt	i
- CCOC(=O)N1CCN(CC(O)COC2CC(C)CC(C)(C)C2)CC1 (stereo not drawn)
    >57	i
- O=C(CSc1ncn(-c2ccccc2)n1)Nc1ccc(Br)cn1
    >57	i
- CC(O)C(O)C(O)C(O)C1NCCS1 (stereo not drawn)
    >57	i

Order of values – Bst PK mod	YjeE inh
- Cc1cccn2cc(-c3ccc(F)cc3)nc12
    nt	i
- N#CCCn1c(=O)c(-c2cccc(C#N)c2)nc2cnc(N3CCOCC3)nc21
    nt	i
- CCCCN(C(=O)NC(=O)Nc1cc(C)ccc1C)S(C)(=O)=O
    >57	i
- CCn1c(SCC(=O)Nc2nc(C)c(C(=O)OC)s2)nnc1C(C)C
    >57	i
- O=C(CSc1nnc(Cn2c(=O)sc3ccccc32)n1-c1ccccc1)NCc1ccco1
    nt	i
- CCOc1ccc(CCN2C(=O)CCC2(C)C(=O)NC(C)CC)cc1OCC (stereo not drawn)
    >57	i
- CCOC(=O)c1c(-c2ccc(C)o2)csc1NC(=O)CSc1nnnn1-c1ccccc1
    >57	i
- COC(=O)[C@@H]1C[C@H]1[C@@H](NS(=O)(=O)c1ccc(-c2ccccc2)cc1)c1ccccc1
    nt	i
- O=C(OC[C@@H](O)CO)c1ccccc1Nc1ccnc2cc(Cl)ccc12
    nt	i
- O=C(O)Cc1ccc(NC(=O)c2cccs2)cc1
    nt	i
- CCOC(=O)N1CCN(C(=O)CN(c2cccc(C)c2)S(=O)(=O)c2ccc(C)cc2)CC1
    >57	i
- CCOC(=O)Cc1csc(NC(=O)c2cccc(N3C(=O)CCC3=O)c2)n1
    >57	i
- C=C(C)CN(CC#N)CC(=C)C
    nt	i
- C=CC[N+](C)(C)CCCNC(=O)/C=N/O
    >26	nt
- CC(O)CNc1ncnc2nc[nH]c12 (stereo not drawn)
    >57	i
- CCOC(=O)c1nnn(-c2nonc2N)c1CN(CC)CC
    nt	i
- CC(C)CN1C(=O)c2ccc(C(=O)Nc3ccccn3)cc2C1=O
    >26	nt
- COc1ccc(CC(=O)n2nc(-c3cccnc3)nc2N)cc1
    >57	i
- O=C(Nc1cccnc1)c1cnn2c(C(F)F)cc(C3CC3)nc12
    >57	i
- CN1[C@H](CC(=O)c2ccccc2)CCC[C@H]1C[C@@H](O)c1ccccc1
    nt	i

Order of values – Bst PK mod	YjeE inh
- C=CC(=O)OCCCC
    nt	i
- CN(C)CC(C)(C)CNC(=O)C1CCN(Cc2ccccc2O)CC1
    >57	i
- Cc1ccccc1-c1nc(CN2CCCC(C(=O)NCCCN3CCOCC3)C2)c(C)o1 (stereo not drawn)
    >57	i
- O=C(c1cccc(Cl)c1)N1CCN(C(=O)c2ccco2)CC1
    nt	i
- Cc1ccc(Cn2c(C)nc3c(c2=O)c2nc4ccccc4nc2n3Cc2ccco2)cc1
    >57	i
- CCCn1c(N)c(C(=O)CN2CCN(S(=O)(=O)c3cccs3)CC2)c(=O)[nH]c1=O
    >57	i
- CCOc1ccc(C(=O)NCc2cccnc2)cc1
    nt	i
- COc1ccc(/C(O)=C2/C(=O)C(=O)N(CCN3CCOCC3)C2c2ccc(C)cc2)cc1 (stereo not drawn)
    nt	i
- CCOc1cc(C)nc(NCCc2ccc(OC)c(OC)c2)n1
    >57	i
- COc1cc(-c2nn3c(-c4ccco4)nnc3s2)cc(OC)c1OC
    >26	nt
- COCCn1nnnc1C(c1cc2cc(C)cc(C)c2[nH]c1=O)N1CCN(c2ccccc2F)CC1 (stereo not drawn)
    >57	i
- Cn1c(=O)c2c(nc(NCc3ccco3)n2CC(O)COc2ccccc2)n(C)c1=O (stereo not drawn)
    >57	i
- COc1ccc(OC)c(C(=O)c2coc3ccc(O)c(CN4CCOCC4)c23)c1
    >57	i
- O=S(=O)(NCc1ccccc1)c1ccc2c(c1)OCCO2
    >57	i
- CCCCCn1c(CN2CCCCC2CC)nc2c1c(=O)n(C)c(=O)n2C (stereo not drawn)
    nt	i
- OC(COc1cccc(OCC(O)CN2CCCC2)c1)CN1CCCC1 (stereo not drawn)
    nt	i
- CCOc1cc(C(=O)O)cc(Cl)c1OCC#N
    >57	i
- Cn1c(NC(=O)c2ccco2)cc(=O)n(C)c1=O
    nt	i
- CN1C(=O)NC(c2ccccc2)C2=C1CN(Cc1ccccc1)C2=O (stereo not drawn)
    >26	nt
- COc1cc(C(C(=O)NC(C)(C)C)N(Cc2ccccc2)C(=O)c2cnccn2)cc(OC)c1OC (stereo not drawn)
    >57	i

Order of values – Bst PK mod	YjeE inh
- COc1ccc(-c2csc(/C(C#N)=C(\O)CSc3nccn3C)n2)cc1OC
    >57	i
- COc1nc(NC(C)(C)C)nc(Oc2ccc(=O)n(-c3ccccc3)n2)n1
    >57	i
- O=C(O)CCCCn1cnc2c(=S)nc[nH]c21
    nt	i
- CCC(=O)NCCC(c1ccco1)c1ccccc1OC (stereo not drawn)
    >57	i
- O=C1NCCCc2c1oc1ccc(O)cc21
    >11	i
- CCOC(=O)N1CCN(C(=O)COc2ccc3c(c2)C(=O)CC2(CCN(C(C)=O)CC2)O3)CC1
    >57	i
- O=C(Nc1ccc(Cl)cc1C(=O)NCC1CCCO1)c1ccco1 (stereo not drawn)
    i	i
- CCOC(=O)CSc1nnnn1-c1cc(OC)ccc1OC
    >57	i
- Cc1ccc2c(c1)c1ncnc(N3CCOCC3)c1n2C
    nt	i
- Cc1cc(C)c2nc(N3CCCN(C(=O)c4cnccn4)CC3)c(C#N)cc2c1
    >57	i
- CCN(CC)c1ccc2cc(C(=O)Nc3ccccn3)c(=O)oc2c1
    i	nt
- CCc1nc(SCc2cccnc2)c(C#N)cc1C
    >26	nt
- CCCn1nnc(NC(=O)c2cccc(OCC(C)C)c2)n1
    >57	i
- O=C(Oc1cccc(Br)c1)c1cccnc1
    >57	i
- O=c1c(F)cn(C2CCCO2)c(=O)n1Cc1c(F)cccc1Cl (stereo not drawn)
    >57	i
- Cc1nc2cc(Cl)c(Cl)cc2nc1C
    >57	i
- CCn1c(=O)c(C2=NS(=O)(=O)c3ccccc3N2)c(O)c2ccccc21
    >57	i
- O=C(O)CSc1nnc(-c2ccccc2O)n1Cc1ccccc1
    >57	i
- O=C(CC1(O)C(=O)Nc2ccccc21)c1ccccc1 (stereo not drawn)
    nt	i
- Cc1cccc(-n2ccnc2SCC(=O)Nc2nccs2)c1
    >57	i

Two of the compounds above, with bars between the fields:
Structure | Bst PK mod | YjeE inh
Cc1ccccc1-c1nc(CN2CCCC(C(=O)NCCCN3CCOCC3)C2)c(C)o1 (stereo not drawn) | >57 | i
O=C(c1cccc(Cl)c1)N1CCN(C(=O)c2ccco2)CC1 | nt | i

Next structures
Order of values – Bst PK mod	YjeE inh
- O=C(c1ccco1)N1CCN=C1SCc1ccccc1F
    nt	i
- CC1CN(C(=O)c2cc3c(=O)n4ccccc4nc3s2)CC(C)O1 (stereo not drawn)
    >57	i
- Cc1oc(C(C)(C)C)cc1C(=O)NCC(=O)NCC(=O)O
    >57	i
- Cc1onc(-c2ccccc2Cl)c1C(=O)N1CCCc2ccccc21
    nt	i
- c1ccc2sc(SCN(C3CCCCC3)C3CCCCC3)nc2c1
    nt	i
- O=C(COc1cccc2ccccc12)N1CCN(c2ccccn2)CC1
    >57	i
- COC(=O)c1ccc2nc(NC(=O)CN3C(=O)CCC3=O)sc2c1
    >57	i

These rows are one share of the data, so the mix of outcomes need not match the whole.
